GIV Gai3 FP = blocks GIV peptide binding to rat Galpha-i3. P08753. Galpha-i3/FITC-GIV peptide fluorescence polarization, 90 min; hits give low values; scaled: aluminum fluoride 0%, vehicle 100%. hit rate 0.42% among 210,000. percent of control (FP), % (concentration not given with the values);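 active = replicate mean at 85% of control or lower, very high polarization wells dropped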;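 note: wells of about 15 µL received 100 nL stock; the first replicate is given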
Target sequence (P08753 whole entry, looked up): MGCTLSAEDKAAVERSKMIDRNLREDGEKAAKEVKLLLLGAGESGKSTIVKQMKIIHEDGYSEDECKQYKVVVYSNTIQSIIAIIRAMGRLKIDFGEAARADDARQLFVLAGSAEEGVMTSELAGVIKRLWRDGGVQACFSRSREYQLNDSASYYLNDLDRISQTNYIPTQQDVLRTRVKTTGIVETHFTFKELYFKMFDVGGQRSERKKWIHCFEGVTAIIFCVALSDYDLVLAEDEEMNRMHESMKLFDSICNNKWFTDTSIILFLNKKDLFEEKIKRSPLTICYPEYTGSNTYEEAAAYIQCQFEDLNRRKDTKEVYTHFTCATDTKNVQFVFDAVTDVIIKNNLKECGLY
Active calls of the source: *. These rows are one share of the data; count on the stated rates, not on these rows.

SMILES	GIV Gai3 FP
CCOc1ccc(-n2nnnc2CNC(=O)Nc2ccc(OC)c(OC)c2)cc1	110
Cc1cc(C)nc(Nc2nc(-c3ccccc3)c3ccc(Cl)cc3n2)n1	103
O=C(Nc1ccccc1SCc1nnc(-c2ccccc2)o1)c1cccc(F)c1	103
O=C1C2=C(Nc3ccccc3SC2c2cccc(O)c2)c2ccccc21 (configuration not stated)	106
CCOC(=O)c1c(NC(=O)C(C)Sc2nnc(CNC(=O)c3cccs3)n2C)sc2c1CCCC2 (configuration not stated)	101
COc1cccc(NC(=O)N2CCCC(c3nnc(C(=O)Nc4ccc(F)cc4)s3)C2)c1 (configuration not stated)	107
Cn1c(=O)c([N+](=O)[O-])c(Nc2ccc(Cl)cc2)c2ccccc21	114
CCc1cc2c(N3CCCC(C(=O)NC4CCCC4)C3)ncnc2s1 (configuration not stated)	109
COc1ccccc1Oc1ccnc(-c2ccc(C(=O)Nc3ccc(C)c(C)c3)cc2)n1	128
CN1C(=O)C2(CCN(C(=O)C3CCCC3)C2)c2ccccc21 (configuration not stated)	106
Cc1ccc2ccc(S(=O)(=O)n3nnc4ccccc43)cc2c1	109
CN(Cc1ccccc1)C(=O)c1ccc(-c2cc(N3CCOCC3)ncn2)cc1	103
CCOc1ccc(-c2noc(CSc3nc4cc5c(cc4c(=O)n3C(C)C)OCO5)n2)cc1	105
CCOc1ccc(S(=O)(=O)Nc2ccc(Cl)c(C(F)(F)F)c2)c2cccnc12	111
COc1cc(-c2nc3sc4c(c3c(=O)[nH]2)CCCC4)ccc1OC(=O)c1ccc(Cl)cc1	105

14 structures already listed, sorted by molecular weight, descending:
SMILES	GIV Gai3 FP
CCOC(=O)c1c(NC(=O)C(C)Sc2nnc(CNC(=O)c3cccs3)n2C)sc2c1CCCC2 (configuration not stated)	101
COc1cc(-c2nc3sc4c(c3c(=O)[nH]2)CCCC4)ccc1OC(=O)c1ccc(Cl)cc1	105
COc1cccc(NC(=O)N2CCCC(c3nnc(C(=O)Nc4ccc(F)cc4)s3)C2)c1 (configuration not stated)	107
CCOc1ccc(S(=O)(=O)Nc2ccc(Cl)c(C(F)(F)F)c2)c2cccnc12	111
COc1ccccc1Oc1ccnc(-c2ccc(C(=O)Nc3ccc(C)c(C)c3)cc2)n1	128
O=C(Nc1ccccc1SCc1nnc(-c2ccccc2)o1)c1cccc(F)c1	103
CCOc1ccc(-n2nnnc2CNC(=O)Nc2ccc(OC)c(OC)c2)cc1	110
CN(Cc1ccccc1)C(=O)c1ccc(-c2cc(N3CCOCC3)ncn2)cc1	103
Cc1cc(C)nc(Nc2nc(-c3ccccc3)c3ccc(Cl)cc3n2)n1	103
CCc1cc2c(N3CCCC(C(=O)NC4CCCC4)C3)ncnc2s1 (configuration not stated)	109
O=C1C2=C(Nc3ccccc3SC2c2cccc(O)c2)c2ccccc21 (configuration not stated)	106
Cn1c(=O)c([N+](=O)[O-])c(Nc2ccc(Cl)cc2)c2ccccc21	114
Cc1ccc2ccc(S(=O)(=O)n3nnc4ccccc43)cc2c1	109
CN1C(=O)C2(CCN(C(=O)C3CCCC3)C2)c2ccccc21 (configuration not stated)	106

Additional compounds follow.
SMILES	GIV Gai3 FP
CC(C)CCNC(=O)c1cc2c(s1)N(C)CCC2	94
Cc1ccccc1C(O)(C(=O)NN(C(=O)c1ccc(Br)o1)c1ccccc1)c1ccccc1C	107
Cc1cccc(N2CCN(c3ncnc4c3cnn4-c3ccccc3)CC2)c1C	114
O=C(C(=O)c1ccc(-c2nc3ccccc3nc2-c2ccc(C(=O)C(=O)c3ccccc3)cc2)cc1)c1ccccc1	102
Cc1ccccc1Cn1nc2c(S(=O)(=O)N3CCCC3)cccn2c1=O	100
O=c1[nH]c(CSCc2ccccc2)nc2c1C1(CCCC1)Cc1ccccc1-2	108
CC(C)n1c(SCc2nc(-c3ccc4c(c3)OCO4)no2)nc2cc3c(cc2c1=O)OCO3	103
COc1ccc(CNC(=O)C2(C)CCCN(S(=O)(=O)c3ccc(F)cc3F)C2)cc1 (configuration not stated)	108
Cc1cc(NC(=O)CSc2ccncc2)ccc1-c1nc2ccccc2s1	106
Cc1sc(-c2cc(C(F)(F)F)on2)cc1S(=O)(=O)NCc1cccs1	104
Cn1nc2ccc(S(=O)(=O)N3CCSCC3)cn2c1=O	102
CCc1c(C)c(C#N)c2nc3ccccc3n2c1Nc1ccc(F)cc1	103
COc1cc(/C=C2/NC(=O)NC2=O)cc(Cl)c1OCc1cccc(C(=O)O)c1	103
O=C(NCc1ccc2c(c1)OCO2)c1cccc(Oc2cc(-c3ccc(F)cc3)ncn2)c1	108
O=C(CCN1C(=O)C2C3C=CC(C3)C2C1=O)Nc1nccs1 (configuration not stated)	104
Cc1ccccc1N1C(=O)Nc2ccccc2S1(=O)=O	101
COc1cccc(-c2cn3c4c(=O)n(C)c(=O)n(C)c4nc3n2-c2ccccc2)c1	104
O=C(NC1CC1)C1CCN(c2nc(-c3ccc(Cl)cc3)no2)CC1	103
Cc1ccc(C(=O)NC2CCN(c3ncnc4c3CCC4)C2)s1 (configuration not stated)	111
CC(C)CC(=O)Nc1cccc(-c2ccc3cc(C(C)C)ccc3n2)c1	100
O=C1CN(Cc2c(F)cccc2Cl)S(=O)(=O)c2ccccc2N1Cc1ccccc1F	103
CC1CN(c2c3c(c(C#N)c4nc5ccccc5n24)CCC3)CC(C)O1 (configuration not stated)	109
CN(C(=O)CSc1nccnc1N1CCN(c2ccccc2)CC1)c1ccc(F)cc1	99
O=[N+]([O-])c1ccc(-c2nc(N3CCOCC3)c3ccccc3n2)cc1	111
O=C1C=C(c2ccccc2)C[C@H](c2cccs2)[C@H]1n1cncn1	118
C=CC(=O)N1c2c(C)cccc2-c2c(ssc2=S)C1(C)C	110
Clc1ccc(C2Nc3ccc(Br)cc3C(c3ccccc3)O2)cc1 (configuration not stated)	100
CCCCC(C(=O)Nc1ccccc1C)N1C(=O)C2C3c4ccccc4C(c4ccccc43)C2C1=O (configuration not stated)	117
Cc1nn2c(S(=O)(=O)NCC3CC3)c(C)nc2s1	103
CC(C)NC(=O)CCn1c(=O)c2ccccc2n2c(=O)n(Cc3ccccc3F)nc12	99
O=c1c2sc(-c3ccccc3)cc2nc2n1CCCCC2	109
Cc1nc(N2CCOCC2)c2c(C)c(C(=O)Nc3ccccc3Cl)sc2n1	99
CCOc1ccc(C=C2c3cc([N+](=O)[O-])cc([N+](=O)[O-])c3-c3c2cc([N+](=O)[O-])cc3[N+](=O)[O-])cc1	98
CN1CCCn2nc(C3CCN(S(=O)(=O)c4ccc5c(c4)OCCO5)CC3)cc2C1=O	105
CC(C)(C)C(=O)[C@H]1[C@H](c2cccs2)C(C#N)(C#N)[C@@H]2c3ccccc3C=CN21	126
CC(C)N1CCN(S(=O)(=O)c2ccc(-c3nnc(C4CC4)o3)o2)CC1	104
COc1cccc(-c2cc(-c3ccccc3)c(C#N)c(SCC(=O)Nc3nc4ccccc4o3)n2)c1	115
CCOC(=O)C1CCN(C(=O)c2sc3ncn(CC(=O)Nc4ccc(C)c(Cl)c4)c(=O)c3c2C)CC1	115
O=C(NCCc1c[nH]c2ccccc12)C1CCN(Cc2cc3ccccc3n2Cc2ccccc2)CC1	103
Cc1ccc(-c2nc3sc(CCNC(=O)c4ccc(F)cc4)c(C)n3n2)cc1	104
CN(CCc1noc(-c2ccc(C(=O)N3CCCC3)cc2)n1)C(=O)NC1CCCCC1	105
O=c1[nH]c(SCc2c(F)cccc2Cl)nc2c1CN(Cc1ccc(F)cc1)CC2	100
COc1ccc(-n2ncc3c(Nc4cc(C)cc(C)c4)ncnc32)cc1	104
CCOc1cc(C2Nc3ccc(C)cc3[C@H]3OCC[C@@H]23)cc(Br)c1OCC (some centres not stated)	98
O=C(c1cc(-c2ccncc2)nc2ccccc12)N1CCN(c2cccc(Cl)c2)CC1	106
c1cncc(CNc2nc(N3CCOCC3)nc(N3CCOCC3)n2)c1	110
CN(C)C(=O)C1CCCN(Cc2cccs2)C1 (configuration not stated)	99
CCC(Sc1nc2ccccc2c(=O)n1CCC(=O)NCCc1ccc(OC)c(OC)c1)C(=O)NCc1ccco1 (configuration not stated)	113
COc1ccc(C2=NN3C(C2)c2cc(Cl)ccc2OC3c2cccc(Cl)c2)cc1 (configuration not stated)	102
CCCCOC(=O)c1sc2nc3c(c(-c4cccs4)c2c1N)CCC3	101
Cc1cc(NC(=O)CSc2nc3c(sc(=S)n3CC3CCCO3)c(=O)n2-c2ccc(F)cc2)no1 (configuration not stated)	127
COC(=O)c1ccc2c(=O)n(CCN3CCOCC3)c(SCC(=O)N3CCN(c4ccccc4)CC3)nc2c1	106
COCCn1c(C2CCN(S(=O)(=O)c3ccc(F)cc3)C2)nc2cccnc21 (configuration not stated)	104
Cc1ccc(C2C3C(=O)N(c4cccc(C)c4)C(=O)C3N3CCCN23)cc1 (configuration not stated)	122
CCc1cc(-c2csc(S(=O)(=O)N3CCN(Cc4ccc5c(c4)OCO5)CC3)c2)on1	104
COc1ccccc1NNC(=O)C(O)(c1ccc(C)cc1)c1ccc(C)cc1	113
CCOc1ccc2c(c1)C(=C1SC(C(=O)OC)=C(C(=O)OC)S1)C(=S)C(C)(C)N2C(=O)CCC1CCCCC1	109
CCOC(=O)C1CCN(C(=O)CSc2nccc3c2ccn3Cc2cccc(C)c2)CC1	114
CC(=O)Nc1cccc(Nc2nc(-c3ccccc3F)nc3ccccc23)c1	107
COc1ccc(-c2noc(Cc3nc(-c4ccc(Br)cc4)cs3)n2)cc1OC	112

Further entries.
SMILES	GIV Gai3 FP
CCc1ccc(NC2=CC(c3ccc(C(C)(C)C)cc3)N(c3ccc(CC)cc3)C2=O)cc1 (configuration not stated)	106
O=C1/C(=C/c2ccc(-c3cc(Cl)ccc3Cl)o2)C=C(c2ccccc2)N1c1ccc(-c2ccccc2)cc1	104
Cc1ccc(Nc2nc3nonc3nc2NC(C)C)cc1C	111
O=C(Nc1ccc(I)cc1)C1C2CCCC1C2c1ccccc1 (configuration not stated)	101
Cc1nnc(-c2ccc(S(=O)(=O)N3CCCCCC3)o2)o1	102
CCOc1ccc(NC(=O)Nc2ccc3nc(-c4ccccc4)cc(OC)c3c2)cc1	108
CCOC(=O)c1c(NC(=O)CSc2nnc(CNC(=O)c3ccc(OC)c(OC)c3)n2C)sc2c1CCC2	105
CCOc1c(N2CCCCC2)c(=O)c1=O	103
COC(=O)C1=CN(Cc2ccc(F)cc2)C=C(C(=O)OC)C1c1ccccc1OCc1ccccc1	102
COc1cccc(NC(=O)CC2CCN(S(=O)(=O)c3ccc4c(c3)oc(=O)n4C)CC2)c1	103
COc1ccc(C2=NN(C(=O)CSc3nnc(CNC(=O)c4cccc(OC)c4)n3C)C(c3ccc(F)cc3)C2)cc1 (configuration not stated)	104
Clc1ccc(CNc2nc(-c3nnc(-c4ccccc4)o3)nc3ccccc23)cc1	104
O=C1C=C(/C=C/c2ccccc2)C[C@H](c2ccccc2)[C@H]1n1nnc([N+](=O)[O-])n1	101
COc1cccc(C2c3[nH]c4ccccc4c3CCN2S(=O)(=O)c2ccc(C)cc2)c1 (configuration not stated)	103
CCOc1ccccc1NC(=O)NCc1nnnn1-c1ccc(Cl)cc1	98
O=C(CC(SCc1ccco1)c1cccs1)c1ccc(Cl)cc1 (configuration not stated)	108
Cc1ccnc(N2CCCC(C(=O)NCCc3ccc(S(N)(=O)=O)cc3)C2)n1 (configuration not stated)	97
O=C(Nc1ccc(Br)cc1)c1ccc(-c2cc(N3CCCC3)ncn2)cc1	101
CN(C)c1cc(OC2CCN(C(=O)c3cnccn3)C2)ncn1 (configuration not stated)	93
CC(C)CCC1=NN(C(=O)c2ccc([N+](=O)[O-])cc2)C(O)(C(F)(F)F)C1 (configuration not stated)	107
O=C(Nc1cc(Cl)ccc1Oc1ccc2ccccc2c1Br)c1cc(I)cc(I)c1O	105
Cc1cc2c(cc1C)NC1(CCCCCC1)C(=NCc1ccccc1)N2	99
Cc1nnc(-c2coc(S(=O)(=O)N3CCCC3)c2)o1	104
CC(=O)NCCc1csc(C2CCCN(C(=O)c3ccoc3)C2)n1 (configuration not stated)	104
O=C(Nc1c(F)cc(F)cc1Br)c1cc(S(=O)(=O)N2CCc3ccccc3C2)ccc1F	106
CC1=C(C)CC(C(=O)O)C(C(=O)O)C1 (configuration not stated)	113
Cc1cccc(OCCn2c(NC(=O)c3ccc([N+](=O)[O-])cc3)nc3ccccc32)c1	109
CCc1ccc(S(=O)(=O)N2CCCC2c2nc(-c3ccc(Cl)cc3)no2)cc1 (configuration not stated)	107
O=C(c1ccccc1F)N(NC(=O)C(O)(c1ccccc1)c1ccccc1)c1ccccc1	110
O=C(CCN1C(=O)/C(=C/c2cccs2)SC1=S)N(CCO)Cc1ccccc1	116
O=C1CSC(c2cc3c(cc2Br)OCO3)N1c1cccc(C(F)(F)F)c1 (configuration not stated)	112
CCOc1ccc(N2CC(O)(c3ccc(F)cc3)[N+]3=C2SCCC3)cc1 (configuration not stated)	104
CSc1ccc(-c2nc(-c3ccccc3)c(-c3ccc(Sc4ccccc4)cc3)[nH]2)cc1	110
FC(F)Sc1ccc(C2=Nn3c(Cc4ccccc4)nnc3SC2)cc1	108
NS(=O)(=O)c1ccc(CCNc2ccc(-c3nc(-c4ccccc4)no3)cn2)cc1	103
COCCNC(=O)N1CCC(c2nc(C(=O)N3CCSCC3)c(C)o2)CC1	96
Cc1cc(-c2c(C)sc(C)c2S(=O)(=O)NCc2ccc(Cl)cc2)n[nH]1	98
CC1CCN(c2ncc3c(n2)CCC(C(=O)NCCN2CCOCC2)C3)CC1 (configuration not stated)	103
COc1ccc(NS(=O)(=O)c2ccc(/C=C\c3onc(C)c3NC(C)=O)cc2)cc1	108
CCOC(=O)C1=C(C(=O)OCC)SC(=C2C(=S)C(C)(C)N(C(=O)c3ccc([N+](=O)[O-])cc3)c3ccc(C)cc32)S1	112
